# Assay outcomes: PubChem BioAssay, ICCB-Longwood Screening Facility, Harvard Medical School
# HCMV UL50-53 inh – inhibitors of HCMV UL50-UL53 interaction, biochemical, HTRF. HCMV UL50-UL53 nuclear egress complex (human cytomegalovirus). normalized percent inhibition. inhibition, % (concentration not given with the values). 190,000 compounds, 0.15% hits;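 active means both replicates at 50% or more, plus weaker picks with an unusually low signal ratio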;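 further: stock transfer was 100 nL into about 20 µL; 0% = negative control wells and 100% = wells with untagged competitor protein; inactives centre near -12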
# GIV Gai3 FP – inhibitors of GIV peptide binding to Galpha-i3, primary screen, biochemical, fluorescence polarization, FITC-GIV GBA peptide, rat Galphai3. Guanine nucleotide-binding protein G(i) subunit alpha-3 (Rattus norvegicus), P08753. 90 min; hits give low values; scaled: aluminum fluoride 0%, vehicle 100%. percent of control (FP), % (test concentration not listed). 210,000 compounds, 0.42% hits. AID 1224905, 2016;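 active means replicate mean at 85% of control or lower, very high polarization wells dropped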;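 further: wells of about 15 µL received 100 nL stock; the first replicate is given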
# Target sequence (P08753 whole entry, looked up): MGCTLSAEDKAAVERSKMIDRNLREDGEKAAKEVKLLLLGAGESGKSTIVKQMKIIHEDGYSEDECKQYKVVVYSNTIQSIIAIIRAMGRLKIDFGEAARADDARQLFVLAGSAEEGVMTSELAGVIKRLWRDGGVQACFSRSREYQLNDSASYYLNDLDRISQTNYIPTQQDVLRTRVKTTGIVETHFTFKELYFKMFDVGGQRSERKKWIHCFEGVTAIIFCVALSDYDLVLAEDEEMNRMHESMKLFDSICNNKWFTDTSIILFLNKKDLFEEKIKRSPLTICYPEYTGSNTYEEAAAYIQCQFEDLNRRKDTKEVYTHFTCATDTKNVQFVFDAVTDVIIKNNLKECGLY
# Sa growth 42C – S. aureus growth inhibition at 42 and 30 °C, primary screen, LtaS inhibitor project, RN4220, two temperatures | AID 720641, 2013 | OD600, 20 h, 42 °C; hits give low values | relative growth, % (no concentration beside the values) | 170,000 compounds, 0.53% hits;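 active means growth at 42 °C up to 50% and 20 or more points under that at 30 °C, or under 10% at both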;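 further: 300 nL library stock went into each well; scaled to the means of positive and negative controls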
# Sa growth 42C second temp – further read-out of Sa growth 42C, marked with its call; relative growth, %; measured here: growth at 30 °C;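 optical density after 20 h as mean of two plates; 100% = untreated growth and lower means inhibition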
# * marks the source's active call; other numbers are inactive results; · = not tested or not shown; & = joins results of further samples.
SMILES,HCMV UL50-53 inh,GIV Gai3 FP,Sa growth 42C,Sa growth 42C second temp
Cn1c(=O)[nH]c(=O)c2c1nc(CN1CCN(c3ccccc3)CC1)n2Cc1c(F)cccc1Cl,-6,102,86,93
COC(=O)c1cc(S(=O)(=O)N2CCCC2C(=O)N2CCc3ccccc3C2)cn1C (stereo unspecified),1,113,·,·
CCC(=O)N1CC2(C)CN(C(=O)CC)CC(C)(C1)C2,-19,99,·,·
CC(=O)N1CCN=C1SCc1ccc(C)cc1,-18,98,84,105
CCN(CC)C(=O)CSc1nc(-c2ccc(F)cc2)nc2c1Cc1c(CO)cnc(C)c1O2,-40,104,83,71
COc1ccc(OCC(=O)N(Cc2cccc(OC)c2)C2CCS(=O)(=O)C2)cc1 (stereo unspecified),-18,100,96,82
COc1ccc(-n2ccnc2SCC(=O)Nc2ccc3c(c2)OCO3)cc1,·,104,105,96
CCOc1ccc(NC(=O)c2c(Nc3ccc(OC)cc3OC)sc(C(=O)c3ccc(Cl)cc3)c2N)cc1,·,101,78,97
C=CCn1c(OCc2ccccc2)n[nH]c1=S,·,103,105,72
Cc1ccccc1N1C(=O)c2ccccc2C1Nc1ccc2c(c1)OCCO2 (stereo unspecified),10,109,102,102
O=C(COC(=O)Cc1ccc(Br)cc1)NCC1CCCCC1,-4,·,99,95
CN(C)c1ccc(-c2nc3ccc(Cl)cn3c2Nc2ccc3c(c2)OCCO3)cc1,8,102,97,96
Cc1ccc(C)c(N/C=C/C(=O)C(C)(C)C)c1,-3,97,113,105
CCOC(=O)c1cccc(NC(=O)c2cc3sccc3n2Cc2ccc(Cl)cc2)c1,7,108,99,90
Cc1ccc2[nH]c(C)c(CCC(=O)NC3CCCCC3)c2c1,-12,104,118,87
CCc1cccc(C)c1NS(=O)(=O)c1cc(-c2cc(C)no2)ccc1C,·,106,114,88
CCCc1c(O)nc(SCc2ccccc2)[nH]c1=O,·,107,89,88
CCN1/C(=C\C(=O)C2CC2)Sc2ccccc21,-27,100,78,64
CCN(CC(=O)NCc1ccc(F)cc1)C(=O)c1cc(=O)[nH]c2ccccc12,-32,·,114,101
O=C(Nc1ccc(C(=O)N2CCN(c3ccccn3)CC2)cc1)C1=CSCCO1,-39,97,·,·
S=C(NCCN1CCOCC1)Nc1ccc(Nc2ccccc2)cc1,·,98,100,84
O=c1cc(Cc2ccccc2)nc2c(-c3ccc(Cl)cc3)c(C(F)(F)F)[nH]n12,-20,98,·,·
Cc1c(-c2cc(N)n(C)n2)sc2ccc(Cl)cc12,4,103,38,33
Cc1cn(S(=O)(=O)c2ccc3c(c2)oc(=O)n3C)cn1,-6,100,·,·
COC(=O)c1cc(S(=O)(=O)NCCC(=O)NC2CCCC2)cn1C,-3,113,·,·
Cc1ccc2oc(-c3cc(NC(=O)C(C)C)cc(C)c3O)nc2c1,·,107,113,82
O=C1COc2cc(S(=O)(=O)N3CCC(C(=O)NC4CCCCC4)CC3)c(Cl)cc2N1,1,101,·,·
CN1CCN(c2ccc(-c3ccc(NS(=O)(=O)c4ccc5c(c4)OCCO5)cc3)nn2)CC1,-34,101,·,·
Cc1ccc(-n2c(O)c(/C=N/Nc3nc4cc(S(=O)(=O)N5CCOCC5)ccc4o3)c3ccccc3c2=O)c(C)c1,6,·,111,110
CCN(CC)c1ccc(CNC(CC(=O)O)c2c[nH]c3ccccc23)cc1 (stereo unspecified),·,106,112,86
C=CCn1c(SCC(=O)Nc2ccc(F)cc2)nc2ccccc2c1=O,-28,97,97,79
NNC(=O)Cn1cc(C(F)(F)F)ccc1=O,-1,·,87,87
COc1ccc(Br)c2c1-c1nc(NC(=O)c3ccccc3SC)sc1C2,-6,110,80,91
CCc1c(C)sc(NC(=O)c2noc3c2CC(C(C)(C)C)CC3)c1C#N (stereo unspecified),·,107,108,84
Cc1cc(C(=O)NC2CCCCC2)no1,·,106,106,102
Cc1cc(C)cc(NC(=O)C2CCCN(c3nnc(-n4c(C)ccc4C)s3)C2)c1 (stereo unspecified),8,103,92,72
COC(=O)c1ccc(-n2nnc(-c3nc(-c4ccc5c(c4)OCO5)no3)c2C)cc1,·,108,109,93
O=C(CN1C(=O)CCn2nc(-c3ccc(Cl)cc3)cc21)N1CCC(Cc2ccccc2)CC1,1,116,·,·
COc1ccc(CN2CCCC(C(=O)Nc3ccc(OC)c(OCC(C)C)c3)C2)cc1OC (stereo unspecified),-30,98,94,75
O=C(OCCN1CCOCC1)c1ccccc1,-11,101,107,94
CC(C)Cn1cc(C(=O)NCc2ccc3c(c2)OCO3)c2c3ccccc3n(C)c2c1=O,-32,104,·,·
CCOC(=O)c1c(-c2ccccc2)oc2c1cc(OC(=O)c1ccccc1C)c1ccccc12,-15,103,·,·
COc1cccc(/C=C(\C#N)C(=O)Nc2ccc(NC(C)=O)cc2)c1OC,·,105,106,93
CSc1nccc(-c2cccs2)n1,-47,102,100,96
Cc1nn(-c2ccccc2)c2sc(C(=O)N3CCc4ccccc4C3)cc12,-27,·,84,84
CC(C)NC(=S)NNc1ccc(C(=O)O)cc1,-6,·,78,83
CCOC(=O)c1c(NC(=O)CSc2nnc3sc4ccccc4n23)sc(C(=O)N(CC)CC)c1C,-5,·,97,96
O=C(COc1ccccc1-c1nnc(-c2ccccc2)o1)NCCc1c[nH]c2ccccc12,-8,108,·,·
CC1(C)CC2CC(C)(CN2c2ncnc3ccccc23)C1 (stereo unspecified),-7,109,99,91
CCN(CC)c1ncnc2c1ncn2Cc1c(Cl)cccc1Cl,-14,101,91,82
COC(=O)c1ccc(Nc2nnc(-c3ccc(C(=O)NCCO)cc3)c3ccccc23)cc1,-13,101,·,·
COc1ccc(Cc2nnc(SCC(=O)N3CCCC3)o2)cc1,-33,97,93,80
CC1=C(C(=O)Nc2ccccc2C(F)(F)F)C(c2ccccn2)C2=C(CC(C)(C)CC2=O)N1 (stereo unspecified),15,111,·,·
O=c1c(N2CCN(CCc3ccccc3)CC2)csc2ccccc12,-32,99,·,·
CCC(Sc1nnnn1-c1ccccc1)C(=O)Nc1ccccc1OC (stereo unspecified),-6,98,130,79
O=C(CN1C(=O)c2cccc3cccc1c23)Nc1ccc(S(=O)(=O)Nc2ccccc2)cc1,-1,103,91,63
CCC(C)Nc1nc(NC)nc(-n2cnc(SC)n2)n1 (stereo unspecified),-14,101,·,·
Cc1ccc(-c2nn3c(C)nnc3c3ccccc23)cc1S(=O)(=O)NCc1ccco1,19,104,87,100
O=C(NCCc1ccccc1)c1cnc2sc(N3CCCCCC3)nn2c1=O,·,100,93,94
COc1cc(CC2C(=O)Nc3ccccc32)cc(Cl)c1OC (stereo unspecified),7,103,·,·

# Other records follow:
SMILES,HCMV UL50-53 inh,GIV Gai3 FP,Sa growth 42C,Sa growth 42C second temp
CC(C)CCNC(=O)c1cn(C)c2ccc(S(=O)(=O)N3CCOCC3)cc2c1=O,-13,102,95,93
Clc1ccc(-c2csc(-c3ccno3)n2)s1,-4,100,116,100
O=C(CCc1c[nH]c2ccccc12)NCC1CCCO1 (stereo unspecified),-7,·,91,90
Cn1ncc2c1ncn1nc(-c3ccccc3)nc21,·,96,77,78
O=C1C(=O)N(C2CCN(C(=O)c3ccccc3)CC2)CCN1Cc1cccc(F)c1,-10,93,·,·
CC(C)CC(=O)NCC(c1ccccc1Cl)c1c[nH]c2ccccc12 (stereo unspecified),-12,104,·,·
c1ccc(C[n+]2cccc(-c3ccccc3)c2)cc1,·,97,86,83
Cc1cc(=O)oc2cc(OCC(=O)O)ccc12,·,108,118,79
Nc1ccc(N2CCOCC2)cc1C(F)(F)F,-4,108,121,109
O=c1c2ccccc2c(-c2ccc(Cl)cc2)nn1CN1CCOCC1,-17,107,99,97
CC(C)c1cccc(C(C)C)c1NC(=O)CNC(C)(C)C,-32,·,97,94
O=S(=O)(c1ccccc1)c1nnn2c1nc(Nc1ccccc1)c1cc(Cl)ccc12,6,105,86,105
COc1ccc2[nH]c(C(=O)NCc3cc(Br)ccc3OC)c(N3CCCC3=O)c2c1,-4,100,·,·
COc1ccccc1NC1=NC2CS(=O)(=O)CC2S1 (stereo unspecified),4,105,102,101
COc1ccc2nc(SCC(O)c3ccccc3)[nH]c2c1 (stereo unspecified),-21,·,131,75
CCn1c(=O)c(-c2noc(CCC(=O)Nc3ccc(F)cc3Cl)n2)nn(-c2ccccc2)c1=O,-68,107,·,·
CCOC(=O)c1c(Nc2ccc(C)cc2)nnc(-c2ccccc2)c1-c1ccccc1,-26,107,102,89
COc1cc(OC)c(NC(=O)c2ccc(-c3noc(C)n3)cc2)cc1Cl,-33,103,·,·
CC(C)(C)C(=O)Nc1nnc2n1CCS2,·,98,97,90
CCOc1ccc(-c2c(C)nn3c(C)c(C(=O)Nc4cccc(Cl)c4C)cnc23)cc1OCC,·,94,102,88
Cc1nn(-c2ccccc2)nc1CNS(=O)(=O)c1ccc(-c2ccno2)s1,-30,113,101,91
CCCn1cnc2nc(CSc3ccccc3NC(=O)Nc3ccc(Cl)cc3)cc(=O)n21,-9,100,·,·
C=CCN1CC(c2nc3ccccc3n2CC)CC1=O (stereo unspecified),-19,107,·,·
O=c1oc2ccccc2c(O)c1C=Nc1ccc(C(F)(F)F)cc1,-14,102,·,·
COc1ccc(-c2csc3nc(-c4ccc(Cl)cc4)oc(=O)c23)cc1,-2,103,111,89
CCCC(=O)Nc1nnc(SCc2cc(=O)n3ccccc3n2)s1,·,105,99,94
Cc1cc(C)c(/C=C/c2onc(C)c2S(=O)(=O)N2CCCC(C(=O)NC3CCCC3)C2)c(C)c1 (stereo unspecified),-8,99,·,·
CNC(=O)CCc1cn(Cc2ccccc2Cl)c2ccccc12,·,101,80,64
CN(CC(=O)O)c1ncnc2sccc12,-2,·,72,85
CCOc1cc2c(=O)[nH]c3c(C(=O)NCc4ccco4)sc(=S)n3c2cc1OCC,8,100,86,91
COC(=O)c1ccc(COc2coc(CN3CCc4ccccc4C3)cc2=O)cc1,-35,107,84,88
CCOC(=O)/C(=N/O)C1=NN=C(N)SC1,-47,103,99,86
CC1=C(c2ccc(C(C)C)cc2)S(=O)(=O)N=C1N1CCC(C(=O)Nc2ccc(C)cc2)CC1,·,104,104,91
O=C(NCc1ccco1)c1cc(S(=O)(=O)NCc2ccco2)c[nH]1,-8,·,87,94
O=C(Nc1nc2ccc(Br)cc2s1)c1cc2ccccc2o1,4,·,99,93
COC(=O)c1ccc(NC(=O)CSc2nnc3sc4ccccc4n23)cc1,11,·,94,99
Cc1ccc(CN2CCN(C3CCN(C(=O)c4ccc(C)c(F)c4)CC3)C(=O)C2=O)cc1,9,101,·,·
O=C(CSc1nnc(CNC(=O)c2ccco2)o1)NCc1ccc2c(c1)OCO2,-21,94,95,90
O=C(Nn1cnnc1)c1ccc(OC(F)(F)C(F)C(F)(F)F)cc1 (stereo unspecified),-8,·,115,97
COc1ccc(C(=O)COC(=O)CCCC(=O)Nc2cc(C(F)(F)F)ccc2Cl)cc1,-35,108,95,84

# Compound profiles, as listed above. Order of screens: HCMV UL50-53 inh	GIV Gai3 FP	Sa growth 42C	Sa growth 42C second temp
# `O=C(OCCN1CCOCC1)c1ccccc1` in the list: -11	101	107	94
# `CSc1nccc(-c2cccs2)n1` in the list: -47	102	100	96
# `Cn1ncc2c1ncn1nc(-c3ccccc3)nc21` in the list: ·	96	77	78
# `Clc1ccc(-c2csc(-c3ccno3)n2)s1` in the list: -4	100	116	100
# `O=S(=O)(c1ccccc1)c1nnn2c1nc(Nc1ccccc1)c1cc(Cl)ccc12` in the list: 6	105	86	105

# (list continues)
SMILES,HCMV UL50-53 inh,GIV Gai3 FP,Sa growth 42C,Sa growth 42C second temp
O=C(OC1=CC(=O)c2cccc3cccc1c23)c1ccccc1,-45,163,93,38
Cc1cc(Sc2ccccc2NC(=O)Nc2cccc(F)c2)n2ncnc2n1,-8,103,·,·
OC(CN1CCC(Cc2ccccc2)CC1)CN1CCN(c2cccc(C(F)(F)F)c2)CC1 (stereo unspecified),·,106,48,17
Cc1ccc(Cn2c(=O)c3c(nc4n3CCN4c3cc(C)cc(C)c3)n(C)c2=O)cc1,·,104,102,88
CCc1c(C)[nH]c(C(=O)OC(C)(C)C)c1C,-2,104,109,103
O=C(NC1CCCCC1NC(=O)c1ccccc1Cl)c1ccccc1Cl (stereo unspecified),-6,·,112,87
COc1cc(C(=O)NCc2ccc(OCCN(C)C)cc2)cc(OC)c1OC,-28&-7&3,·,97,94
CC(C)NC(=S)NN(c1ccccc1)c1ccccc1,-7,·,127,103
Cc1ccc(Nc2c(-c3ccsc3)nc3cccc(C)n23)cc1,-17,100,99,85

# Filtered by structure: the compounds so far containing bromine (4)
SMILES,HCMV UL50-53 inh,GIV Gai3 FP,Sa growth 42C,Sa growth 42C second temp
O=C(COC(=O)Cc1ccc(Br)cc1)NCC1CCCCC1,-4,·,99,95
COc1ccc(Br)c2c1-c1nc(NC(=O)c3ccccc3SC)sc1C2,-6,110,80,91
COc1ccc2[nH]c(C(=O)NCc3cc(Br)ccc3OC)c(N3CCCC3=O)c2c1,-4,100,·,·
O=C(Nc1nc2ccc(Br)cc2s1)c1cc2ccccc2o1,4,·,99,93
